AF4-AF9 inh = inhibitors of AF4 peptide binding to AF9, primary screen, biochemical, AlphaScreen, biotin-AF4 peptide, FLAG-AF9, single point; Protein AF-9 (Homo sapiens), P42568; inhibition, % at 10 µM; hit rate 0.47% among 350,000;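 active = every replicate reaching a set inhibition limit, whatever the replicate mean, cut at about 25% in these data; inconclusive = mean inhibition reaches that limit but some replicates miss it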;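 note: 0% = plate neutral control median and 100% = total signal loss; the record names both 10 and 1 µM as test concentration; the first replicate is given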
Target sequence (P42568 whole entry, looked up): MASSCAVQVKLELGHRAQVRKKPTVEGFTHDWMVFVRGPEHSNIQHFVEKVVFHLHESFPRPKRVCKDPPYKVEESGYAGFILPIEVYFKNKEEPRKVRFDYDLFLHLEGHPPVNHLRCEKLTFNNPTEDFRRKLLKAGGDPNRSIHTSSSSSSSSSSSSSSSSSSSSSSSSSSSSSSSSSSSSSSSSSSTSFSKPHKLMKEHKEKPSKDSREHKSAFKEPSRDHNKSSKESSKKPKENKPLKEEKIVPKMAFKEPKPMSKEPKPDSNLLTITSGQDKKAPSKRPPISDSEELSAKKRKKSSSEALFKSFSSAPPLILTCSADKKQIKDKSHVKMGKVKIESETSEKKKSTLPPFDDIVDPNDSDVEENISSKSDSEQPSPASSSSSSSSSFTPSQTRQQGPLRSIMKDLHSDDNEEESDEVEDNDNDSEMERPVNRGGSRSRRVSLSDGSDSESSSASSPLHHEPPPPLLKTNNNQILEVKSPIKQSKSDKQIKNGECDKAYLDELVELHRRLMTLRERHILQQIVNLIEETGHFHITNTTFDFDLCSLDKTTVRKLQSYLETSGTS
UCH37 inh = inhibitors of human UCH37 deubiquitinase, primary screen, biochemical, Ub-AMC cleavage, fluorescence; Ubiquitin carboxyl-terminal hydrolase isozyme L5 (Homo sapiens), Q9Y5K5; purified proteasome/UCH37; inhibition, % (no concentration beside the values); hit rate 0.33% among 330,000; AID 588478, 2011;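 active = mean of two replicates above 20%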;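 note: 0% = compound-free wells with enzyme and 100% = wells lacking proteasome; stock transfer was 100 nL into about 20 µL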
Target sequence (Q9Y5K5 whole entry, looked up): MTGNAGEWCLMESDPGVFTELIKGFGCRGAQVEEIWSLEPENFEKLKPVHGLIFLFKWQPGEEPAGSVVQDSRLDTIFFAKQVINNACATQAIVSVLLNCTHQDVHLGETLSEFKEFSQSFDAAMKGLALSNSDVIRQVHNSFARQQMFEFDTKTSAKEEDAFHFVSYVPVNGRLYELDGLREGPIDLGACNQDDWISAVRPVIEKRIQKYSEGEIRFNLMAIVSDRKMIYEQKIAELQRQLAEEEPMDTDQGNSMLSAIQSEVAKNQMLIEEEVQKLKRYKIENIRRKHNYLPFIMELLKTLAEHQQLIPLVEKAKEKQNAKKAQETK
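System: Proteasome-associated human UCH37 deubiquitinase; Input: 0.15 nM proteasome in added enzyme buffer; Also added: Ub-AMC substrate from 1 µM stock; Incubation: 30 min compound-proteasome preincubation then 25 min substrate reaction, room temperature; Detection: fluorescence, ex 355 nm, em 460 nm; Read-out: % inhibition of Ub-AMC cleavage fluorescence; Benchmarks: no-proteasome and no-compound wells.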
Vif A3G = inhibitors of Vif binding to APOBEC3G peptide, primary screen, biochemical, TR-FRET, GST-Vif 1-94, biotin-A3G peptide, dose response retest (AID 1117319); Virion infectivity factor (Human immunodeficiency virus type 1 group M subtype B (isolate …; TR-FRET GST-Vif / biotin-A3G peptide binding; higher % means a stronger effect; test concentration not given here; strong numbers were not always called active; inhibition, %; hits with a dose series show IC50 in µM; hit rate 0.57% among 260,000;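 active = above the screen mean plus three standard deviations and confirmed in dose response; inconclusive = results disagree or hit not tested in dose response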;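 note: Vif residues 1-94 fused to GST binding biotinylated APOBEC3G peptide 110-148; 0% = full assay without inhibitor and 100% = GST in place of GST-Vif; retest series ran down from 100 µM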
HNF4A DNA FP = change in binding of human HNF4A to DNA, primary screen, biochemical, fluorescence polarization, FITC-DNA. Hepatocyte nuclear factor 4-alpha (Homo sapiens), P41235. 1 h. activity change, % at 10 µM. hit rate 0.3% among 360,000; in the data active = activity change above about 30%, passing the limit was not always enough;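 note: controls were the assay level and a saturating level of protein; the project sought stronger binding though the title names inhibitors; some compounds called inactive have numbers as strong as hits; positive values seem to mean higher polarization but the record does not say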
Ecoli growth = E. coli growth inhibition, primary screen, OD600; AID 1053175, 2014; hit rate 0.21% among 330,000; Escherichia coli growth, 23 h; active compounds read low; OD600 absorbance (concentration not given with the values);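 active = OD600 absorbance below the run mean of sample wells minus 3.6 SD, in any replicate, cut at about 0.56 in these data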;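 note: stock transfer was 300 nL into about 60 µL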
FGF22 binding = binders of human FGF22 protein, primary screen, FGF22 synaptogenesis inhibitor project, biophysical, thermal shift, single point | Fibroblast growth factor 22 (Homo sapiens), Q9HCT0 | recombinant FGF22 thermal shift, SYPRO orange fluorescence; percent of sucrose octasulfate shift, DMSO zero | calls only at 9.99 µM | hit rate 1.5% among 340,000;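 active = melting point raised past a set limit in the mean and every replicate; inconclusive = no clear call; three in four hits are not shown here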
Target sequence (Q9HCT0 whole entry, looked up): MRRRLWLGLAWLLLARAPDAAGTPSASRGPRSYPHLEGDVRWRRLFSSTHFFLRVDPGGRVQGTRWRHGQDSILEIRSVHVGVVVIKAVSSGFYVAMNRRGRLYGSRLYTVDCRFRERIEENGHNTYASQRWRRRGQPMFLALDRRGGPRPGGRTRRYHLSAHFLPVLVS
RanGTP-Impb inh = inhibitors of RanGTP-importin-beta interaction, primary screen, biochemical, FRET, CFP-Ran, YFP-importin-beta, homogeneous; hit rate 1.1% among 300,000; Ran GTPase (GTP-bound) - importin-beta complex; cell-free CFP-Ran/YFP-importin-beta FRET ratio; inhibition, % (no concentration beside the values);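 active = most replicates above 15%; inconclusive = exactly half above 15%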;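 note: 0% = DMSO wells and 100% = Ran loaded with GDP instead of GTP; wells of about 40 µL received 100 nL stock; the first replicate is given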
An asterisk follows results filed as active; i = inactive; ? = inconclusive; . = not tested or not shown; + = active, no number; & = joins results of further samples.

SMILES	AF4-AF9 inh	UCH37 inh	Vif A3G	HNF4A DNA FP	Ecoli growth	FGF22 binding	RanGTP-Impb inh
Cc1nc(N)sc1-c1nnc(SCC(=O)Nc2ccccc2C(F)(F)F)n1C	.	3.0	3.8%	-1.4	0.684	.	2.5
NC(=O)c1ncn([C@@H]2O[C@H](CNS(=O)(=O)c3cc4ccccc4s3)[C@@H](O)[C@H]2O)n1	-1.7	.	2.0%	2.3	.	i	.
COc1ccc(NC(=O)CCC2COc3ccccc3O2)c(OC)c1 (stereo not drawn)	.	0.3	-0.5%	-4.0	0.662	.	2.4
COc1ccc(CCNC(=O)c2cccc([N+](=O)[O-])c2)cc1OC	0.3	3.5	.	-4.2	0.593	i	3.3
CN(C)S(=O)(=O)N1CCN(c2cc(Cl)ccc2Cl)CC1	.	6.7	19.9%	0.1	0.68	.	1.4
Cc1ccc(C)c(N2CCN(S(=O)(=O)c3ccc4[nH]c(=O)ccc4c3)CC2)c1	4.0	-0.8	.	5.5	0.77	i	-3.1
CNC(=O)COC(=O)c1ccc(OCC(=O)Nc2ccccc2OC)c(OC)c1	-1.1	3.3	.	0.7	0.652	i	-0.5
Cc1ccc(CNC(=O)c2ccccc2SCC(=O)NCC2CCCCC2)cc1	.	-0.6	8.1%	-0.6	0.676	.	1.6
CC1CCN(c2nc3c(c(=O)n(C)c(=O)n3C)n2Cc2ccccc2)CC1	6.8	0.7	-0.8%	0.1	0.686	i	5.5
CCC1(CC)C(=O)C2=C3C1[C@H](C(=O)OC)CC(C(=O)OC)C[C@H]3n1c(=O)n(C)c(=O)n1[C@H]2C (stereo partly drawn)	-2.5	2.5	.	1.8	.	i	-3.5
CC(=O)Nc1ccc(SCc2c(C)noc2C)cc1	-44.3	3.2	13.2%	-19.1	0.596	i	4.2
CCNc1nc(NCC)nc(N(C)N)n1	.	3.1	12.2%	0.1	0.713	.	7.8
O=C(CSc1nc2ccc([N+](=O)[O-])cc2[nH]1)NC1CCCCCC1	.	1.6	.	3.1	.	.	7.3
CCC(=O)N(Cc1ccco1)c1nc(-c2cc(OC)ccc2OC)cs1	.	2.5	2.4%	1.6	0.689	.	0.8
Cc1nc2oc3ccc(F)cc3c(=O)c2cc1C(=O)NC(C)(C)C	-0.2	0.3	28.9%	-3.8	0.684	i	.
Cc1ccc(OCC(=O)N(Cc2ccccc2)c2c(N)n(Cc3ccccc3)c(=O)[nH]c2=O)c(C)c1	-1.5	3.7	-4.2%	-2.2	0.621	i	-3.3
COC(=O)c1ccccc1N1C(=O)C2C(C1=O)[C@H]1C=C[C@@H]2C1 (stereo partly drawn)	.	2.5	4.9%	0.3	.	.	5.9
Cc1cc(=O)oc2cc(NS(=O)(=O)c3ccccc3)ccc12	-2.9	i	-7.7%	0.4	0.66	i	3.2
Cc1ccccc1C(=O)NC[C@@H]1CCCN2CCCC[C@H]12	-5.9	4.4	-4.3%	0.6	0.677	i	1.2
CN(C)CCCN(C(=O)c1ccco1)c1nc2ccc(Br)cc2s1	18.8	6.3	-1.9%	2.9	0.64	i	4.0
O=C1CN(C(=O)COC(=O)c2ccccc2NC(=O)c2ccco2)c2ccccc2N1	.	-6.8	-0.1%	0.9	0.708	.	-3.2
O=C(c1ccc(-n2cccn2)cc1)N1CCN(c2ncccc2C(F)(F)F)CC1	-1.8	3.4	.	4.0	0.715	i	-5.4
O=C(Nc1ccc2c(c1)OCCO2)C1CCN(c2nnnn2-c2ccccc2)CC1	.	1.2	0.7%	-0.2	0.633	.	-1.6
Nc1c(C(=O)O)cnn1-c1ccccc1	-2.0	-1.2	2.8%	-0.6	0.671	.	-1.3
O=C(CNS(=O)(=O)c1ccccc1)N1CCN(C(=O)c2ccco2)CC1	0.2	2.3	-7.3%	1.6	0.717	.	1.5

Further compounds:
SMILES	AF4-AF9 inh	UCH37 inh	Vif A3G	HNF4A DNA FP	Ecoli growth	FGF22 binding	RanGTP-Impb inh
Cc1ccc(S(=O)(=O)NCC(=O)N2CCN(c3ccccc3F)CC2)cc1	.	4.9	-1.2%	0.7	0.719	.	-0.4
Cc1cccc(C(=O)OCC(=O)c2c(N)n(CC(C)C)c(=O)n(C)c2=O)c1O	-1.3	1.2	5.6%	0.3	0.673	i	-4.0
Cn1c(=O)c2c(nc(NCc3ccco3)n2C/C=C/c2ccccc2)n(C)c1=O	.	-4.9	5.3%	-1.0	0.736	.	-1.2
CCNC(=O)COC(=O)/C=C/c1ccccc1[N+](=O)[O-]	.	2.0	-7.2%	0.4	0.699	.	-1.9
Cc1ccc(Nc2nc(N)nc(CN3CCN(Cc4ccc5c(c4)OCO5)CC3)n2)cc1	.	2.7	-0.5%&-5.6%	-1.1	0.674	.	?
Cc1nc(NC(=O)CSc2ccc(-c3nc4ccccc4[nH]3)cn2)sc1C	.	-2.5	.	2.1	0.683	.	-1.9
CCOC(=O)Cc1csc(SCc2cc(=O)oc3cc(O)ccc23)n1	.	-24.7	-2.5%	-0.4	0.724	.	6.5
CC(=O)N1CC(=O)N=C1SCC(=O)Nc1nc(C)c(-c2ccccc2)s1	-3.3	7.5	-4.3%	1.8	0.701	i	?
C/C(=N\NC(=O)c1cccc(F)c1)c1ccc(NC(=O)Cc2ccccc2)cc1	-2.0	.	.	-1.5	.	i	.
CCOC(=O)C(=O)Nc1ncc(Cl)s1	-2.9	4.3	-1.2%	-2.2	0.674	i	1.7
COc1ccc2[nH]c(C(=O)N/N=C/c3ccccc3OC)cc2c1	2.1	.	-8.6%	-2.5	.	i	-3.6
O=C(c1ccco1)N1CCCN(Cc2nc(-c3ccc4c(c3)OCO4)no2)CC1	1.6	3.2	0.3%	-3.2	0.677	i	2.1
CCOC(=O)CCCNC(=O)c1cncc(Br)c1	.	1.6	-1.8%	-3.5	0.711	.	1.3
CCOC(=O)c1c(C)[nH]c(C(=O)N2CCCC(C(=O)c3cccc(OC)c3)C2)c1C (stereo not drawn)	0.4	3.5	3.8%	2.7	0.714	i	2.1
CCSc1nnc2c(n1)OC(C)(C)Nc1ccccc1-2	-2.5	7.6	2.4%	1.5	0.694	i	-0.4
O=C(Nc1ccc(N2CCN(C(=O)c3ccccc3)CC2)cc1)c1cc([N+](=O)[O-])ccc1N1CCOCC1	6.3	6.3	.	2.6	0.691	i	-1.5
Cc1ccccc1NC(=S)N1CCCN(Cc2ccc(F)cc2)C1	-33.9	2.9	.	1.0	0.701	i	-0.1
Cc1ccccc1OCC(=O)N/N=C/c1ccc([N+](=O)[O-])o1	1.6	.	.	2.7	.	i	-2.2
CN(C)c1ccc(NC(=O)/C=C/c2ccccc2Cl)cc1	.	5.2	1.6%	4.5	.	.	5.0
Cc1ccc(C)c(OCCCCn2ccnc2)c1	.	3.9	0.8%	1.1	0.676	.	1.0
CCCCC(=O)N/N=C(\C)c1cccc(NC(=O)C2CC2)c1	.	.	-2.6%	-4.0	.	.	-2.0
CCOC(=O)c1c(-c2ccccc2)csc1NC(=O)CSc1nncs1	.	-0.4	24.3%	-0.6	0.676	.	-3.1
N#CCc1cnc2ccccc2n1	0.1	0.9	2.6%	0.2	0.682	i	28.6*
O=c1c2ccccc2nc2sc(Nc3ccc(F)cc3)nn12	-0.8	-0.5	.	5.3	0.708	i	.
O=C(CSCCc1ccccn1)Nc1cccnc1Cl	.	5.3	6.7%	6.6	0.659	.	3.0

Single records, as listed above. Order of screens: AF4-AF9 inh, UCH37 inh, Vif A3G, HNF4A DNA FP, Ecoli growth, FGF22 binding, RanGTP-Impb inh
`CN(C)c1ccc(NC(=O)/C=C/c2ccccc2Cl)cc1` reads ., 5.2, 1.6%, 4.5, ., ., 5.0
`CCOC(=O)c1c(C)[nH]c(C(=O)N2CCCC(C(=O)c3cccc(OC)c3)C2)c1C` (stereo not drawn) reads 0.4, 3.5, 3.8%, 2.7, 0.714, i, 2.1
`Cc1ccccc1OCC(=O)N/N=C/c1ccc([N+](=O)[O-])o1` reads 1.6, ., ., 2.7, ., i, -2.2

(list continues)
SMILES	AF4-AF9 inh	UCH37 inh	Vif A3G	HNF4A DNA FP	Ecoli growth	FGF22 binding	RanGTP-Impb inh
Cc1nnc(NC(=O)c2ccc(C)c(S(=O)(=O)N3CCOCC3)c2)s1	.	4.7	69.2%	-1.2	0.694	.	?
O=C1CCc2cc(S(=O)(=O)N3CCC(C(=O)NC4CCCC4)CC3)ccc2N1	13.7	.	1.9%	-1.5	.	i	?
COc1ccc(C(O)c2nc(-c3cnn(C)c3)cs2)cc1 (stereo not drawn)	1.6	.	.	0.2	.	i	.
CCCC(=O)N1c2ccccc2NC2=C(C(=O)CCC2)C1c1ccc(F)cc1 (stereo not drawn)	.	3.9	3.8%	-1.2	0.723	.	-2.1
COc1ccc(-c2ccc3[nH]c4c(c3c2)CCN2C[C@H]3[C@H](C)ON(C)[C@H]3C[C@@H]42)cc1	27.4*	.	-3.7%	1.6	.	i	.
CCc1cccc(N(C)C(N)=Nc2cccc3ccccc23)c1	-3.1	3.6	-0.1%	2.4	0.672	i	3.3
N#CCCn1nc2c(c1N)CCC2	-0.3	.	-3.7%	1.9	.	i	.
O=C(NN1C(=O)C2C3C=CC(C3)[C@H]2C1=O)c1cccnc1 (stereo partly drawn)	.	2.7	14.0%	0.1	0.649	.	-1.2
NC(CC(=O)O)c1ccc(Br)cc1 (stereo not drawn)	.	7.7	.	3.3	0.714	.	1.5
O=C(N/N=C/c1c[nH]c2ccccc12)c1cc2ccccc2o1	0.4	.	-0.7%	0.4	.	+	?
N#Cc1cccc(S(=O)(=O)NNC(=O)C23CC4CC(CC(C4)C2)C3)c1	0.3	3.7	3.3%	-2.9	0.705	i	.
CC(C)Nc1ncnc2c1ncn2[C@H]1CN(Cc2ccco2)C[C@@H](CO)O1	-0.6	.	.	-2.0	.	i	.
Cn1cccc1C(=O)NC(=O)COC(=O)Cc1coc2ccc3ccccc3c12	.	-10.3	7.8%	0.4	0.662	.	-0.8
CCS(=O)(=O)N1Cc2ccccc2CC1C(=O)Nc1cccc(C)c1 (stereo not drawn)	4.0	0.4	.	1.2	0.663	i	2.9
CCN(CC)CCCCCC(=O)Nc1ccccc1C(=O)Nc1ccccc1	3.3	0.1	.	-3.1	0.648	i	-1.3
COC(=O)c1cccc(S(=O)(=O)N2CCC(c3nc4ccccc4o3)CC2)c1	5.0	3.0	-1.5%	4.6	0.692	i	-2.8
Nc1nc(-c2ccc(F)cc2)cc(C(F)(F)F)n1	.	-5.1	71.4%	0.0	0.652	.	4.7
CCC(OC(=O)c1ccco1)C(=O)NCc1ccc(OC)cc1 (stereo not drawn)	-1.8	5.3	-9.9%	6.2	0.692	i	3.3
CS(=O)(=O)N(CC(=O)N/N=C/c1ccc(OCC(=O)N2CCOCC2)cc1)c1ccccc1Cl	1.0	.	1.0%	0.2	.	i	-4.7
O=C(N/C(=C\c1ccc([N+](=O)[O-])cc1)C(=O)N1CCOCC1)c1ccco1	-3.0	12.8	.	0.5	0.677	i	0.5
Cc1ccc(-c2cc(C(=O)N/N=C/c3c[nH]c4ccccc34)[nH]n2)cc1	2.2	.	.	-0.2	.	i	.
Nc1ncnc2c1ncn2[C@@H]1O[C@H](C(=O)NCC(F)(F)F)[C@@H](O)[C@H]1O	-0.8	.	.	1.2	.	i	.

This is a subset, so the mix of outcomes need not match the whole.
